Assay outcomes from PubChem BioAssay.
RE007 growth inh – less growth of the S. pombe RE007 Vpr strain; S. pombe RE007 Vpr strain, BacTiter-Glo ATP luminescence, 24 h; control for the full effect not named in the record; Potency, µM (top dose mostly 92.2 µM), inactives show top-dose activity change, negative = less growth; 360,000 tested, 0.21% active; active = well fitted falling curve with a large enough effect; inconclusive = small, poorly fitted or top-dose-only effect; inactive = no such curve, though single readings can be large or run the other way;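 further: on the % scale 0 is the no-effect control and ±100 the full control effect; nearly all actives have a fitted effect of over 50% in size; the assay follows cell death caused by Vpr and the record does not say whether a fall means rescue or toxicity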
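Fission yeast strain RE007, carrying one chromosomally integrated HIV-1 vpr copy, was seeded at OD 0.01 in PMG+AL medium with 23 nL pinned compound. After 24 h at 30 °C and 99% humidity, viability was read by BacTiter-Glo luminescence.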
NS1 inh – blocks influenza NS1 protein function; S. cerevisiae slowed by influenza A NS1, growth recovery by OD600; Potency, µM (doses to about 46.1 µM), for the others: at the highest dose activity, positive = more growth; 270,000 tested, 0.4% active; further: actives are rising curves; nearly all actives have a fitted effect of over 50% in size
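A cell-based growth assay was used: compounds that relieve NS1-induced slow growth of budding yeast raise OD600. Assay medium was yeast nitrogen base with ammonium sulphate and -URA supplement, pH 6.0, with 2% galactose.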
Cruzain inh Det – cruzain (T. cruzi) inhibition with detergent | purified cruzain, Z-FR-AMC fluorescence, 0.01% Triton | Potency, µM, for the others: max response, negative = inhibition, actives largely listed as inhibitors | AID 1478 | 200,000 tested, 0.43% active | P25779; active means well fitted curve in the direction sought with a large enough effect; inconclusive means small, poorly fitted or top-dose-only effect, or another doubt; inactive means no such curve, though single readings can be large; an effect the other way counts as inactive or inconclusive;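 further: plate controls were neutral wells for no effect and buffer without enzyme for full effect; nearly all actives have a fitted effect of over 40% in size; top concentration of the series not given in the record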
Target sequence (P25779 123-467 limits assumed): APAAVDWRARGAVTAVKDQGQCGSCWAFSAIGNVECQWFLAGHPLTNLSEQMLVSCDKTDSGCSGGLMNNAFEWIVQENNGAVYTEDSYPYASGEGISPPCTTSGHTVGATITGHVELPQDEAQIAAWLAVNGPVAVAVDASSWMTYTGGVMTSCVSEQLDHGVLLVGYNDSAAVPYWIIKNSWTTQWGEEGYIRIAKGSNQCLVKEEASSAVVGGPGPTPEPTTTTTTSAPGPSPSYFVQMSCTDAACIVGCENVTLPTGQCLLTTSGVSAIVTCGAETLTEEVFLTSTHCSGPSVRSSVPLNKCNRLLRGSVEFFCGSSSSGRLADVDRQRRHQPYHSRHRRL
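Purified cruzain (1.5 nM final) was preincubated with compounds for 15 min at room temperature in 100 mM sodium acetate pH 5.5, 5 mM DTT, 0.01% Triton X-100. Reaction started with 2 uM Z-FR-AMC; AMC fluorescence change over 60 s gave activity.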
Lassa entry inh – Lassa virus entry inhibition; Lassa virus pseudotype entry inhibition, cell reporter; control for the full effect not named in the record; Potency, µM (series often up to 37.9 µM), for inactives: top-dose activity change, negative = inhibition, hits mostly inhibitors; 300,000 tested, 1.2% active; active means well fitted inhibition curve with a large enough effect; inconclusive means small, poorly fitted or top-dose-only effect, or effect the other way; inactive means flat fitted curve, though single readings scatter; tested in HEK293 cells; further: on the % scale 0 is the no-effect control and ±100 the full control effect; nearly all actives have a fitted effect of over 50% in size; luciferase read-out
SARS PLP yeast – inhibitors of SARS-CoV papain-like protease in yeast; S. cerevisiae expressing SARS-CoV PLpro, growth rescue; control for the full effect not named in the record; 330,000 tested, 0.19% active; Potency, µM (series often up to 32.9 µM), without a hit: top-dose activity, positive = growth rescue; further: 0% is about no effect; nearly all actives have a fitted effect of over 55% in size; growth read by luminescence after 48 h
MARV entry inh – blocks Marburg virus binding to or entry into cells | Marburg virus pseudotyped entry inhibition, cell reporter; control for the full effect not named in the record; about a third of the inactives were read at about 46 µM | Potency, µM (doses to about 37.8 µM), without a hit: at the top dose activity change, negative = inhibition, usual class: inhibitors | 300,000 tested, 1.8% active | AID 540276; active = well fitted inhibition curve with a large enough effect; inconclusive = small, poorly fitted or top-dose-only effect, or effect the other way; inactive = flat fitted curve, though single readings scatter; tested in HEK293 cells; about a fifth of its hits are not listed in these tables; further: on the % scale 0 is the no-effect control and ±100 the full control effect; luciferase read-out
Cruzain inh noDet – cruzain (T. cruzi) inhibition without detergent. purified cruzain, Z-FR-AMC fluorescence, no detergent. 200,000 tested, 2.3% active. Potency, µM, for the others: max response, negative = inhibition, hits mostly inhibitors. P25779; active means well fitted curve in the direction sought with a large enough effect; inconclusive means small, poorly fitted or top-dose-only effect, or another doubt; inactive means no such curve, though single readings can be large; an effect the other way counts as inactive or inconclusive;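 further: plate controls were enzyme without inhibitor for no effect and buffer without enzyme for full effect; nearly all actives have a fitted effect of over 40% in size; top concentration of the series not given in the record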
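Detergent-free condition (0.00005% Triton X-100) in acetate buffer pH 5.5 with DTT. 1.5 nM enzyme and compound were pre-mixed 15 min, then 2 uM Z-FR-AMC substrate added; reaction progress from fluorescence change between first and third reads (60 s).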
StopGo reporter – lowers the luciferase signal of an FMDV 2A StopGo reporter | human cells with a luciferase reporter of 2A StopGo recoding; control for the full effect not named in the record | Potency, µM (top dose mostly 57.9 µM), for inactives: at the top dose signal change, negative = less light | 410,000 tested, 1.2% active; active = well fitted falling curve with a large enough effect; inconclusive = small, poorly fitted or top-dose-only effect; inactive = no such curve, though single readings can be large or run the other way; tested in HEK293T cells; further: on the % scale 0 is the no-effect control and ±100 the full control effect; nearly all actives have a fitted effect of over 45% in size; luciferase light after 4 h
Active calls of the source: *; ? = inconclusive; · = no result given; [ ] = another dose, or the depositor's remark. Unless noted, the call rests on the fitted dose curve; in most records, active means well fitted rising curve with a large enough effect; inconclusive means small, poorly fitted or top-dose-only effect; inactive means no such curve, though single readings can be large or run the other way. Potency means the concentration at half of the fitted maximal effect. Not a hit list. About 4.7% of those tested had a hit in this group.

SMILES	RE007 growth inh	NS1 inh	Cruzain inh Det	Lassa entry inh	SARS PLP yeast	MARV entry inh	Cruzain inh noDet	StopGo reporter
CCOC(=O)CC(=O)CSc1nc2ccc(OC)cc2cc1C	0%	5%	·	?	-1%	2%[46.1 µM]	·	8%
CC(C)OC(=O)c1ccc(NC(=O)C2C3CC4OC(=O)C2C4C3)cc1 (stereo unspecified)	0%	-6%	0.6%	?	2%	?	-11%	37%[activator]
CCn1c(SCC(=O)Nc2nccs2)nnc1-c1ccccc1	10%	0%	3.9%	-17%	-1%	29%	-5%	15%
Cc1ccc(S(=O)(=O)c2nc(S(C)(=O)=O)sc2NCc2ccc3c(c2)OCO3)cc1	8%	8%	1.9%	-15%	3%	4%	?	20%
CC(=O)Nc1ccc(S(=O)(=O)NN=Cc2ccc(Cl)c(Cl)c2)cc1	-4%	·	·	?	·	?	·	56%[activator]
CCOc1ccc(CCNC(=O)COC(=O)c2cc(S(=O)(=O)N3CCOCC3)ccc2F)cc1OCC	3%	12%	·	-11%	2%	3%[46.1 µM]	·	-6%
CCCCC(CC)Cn1c(O)c(/C=C2\C=NN=C2c2ccccc2)sc1=S (stereo unspecified)	-10%	12%	-1.0%	?	?	?	7.9µM*	-25%
N#CCN(C(=O)COC(=O)C1CC2CCCC(C1)C2=O)c1ccccc1 (stereo unspecified)	-10%	·	·	1%[46.1 µM]	1%	?	·	6%
FC(F)(F)c1cccc(N2CCN(C3CC4CCC3C4)CC2)c1 (stereo unspecified)	2%	2%	·	21%	1%	0%	·	-2%
Cc1c(/C(O)=C2\C(=O)C(=O)N(CCN(C)C)C2c2ccccc2)cnn1-c1ccccc1 (stereo unspecified)	-10%	6%	·	12%[46.1 µM]	1%	6%[46.1 µM]	·	-6%
Cc1nn(-c2ccccc2)c2c1C(c1ccc(F)cc1F)C(C#N)=C(N)O2 (stereo unspecified)	-15%	1%	-10%	-17%	-13%	0%	-21%	-23%
CCOc1cc(C2C(C#N)=C(N)Oc3n[nH]c(CC)c32)ccc1OCCN1CCOCC1 (stereo unspecified)	-17%	-6%	-2.5%	0%	-3%	2%[46.1 µM]	-10%	0%
O=C1Nc2c(c(=O)[nH]c(=O)n2-c2ccc(F)cc2)C1(NS(=O)(=O)c1ccc(Cl)cc1)C(F)(F)F (stereo unspecified)	·	·	-4.5%	-1%[46.1 µM]	·	5%[46.1 µM]	1%	0%
C=CCNC(=S)NNC(=O)c1ccco1	3%	10%	·	9%[46.1 µM]	1%	-3%[46.1 µM]	·	-18%
CC1CCCN(S(=O)(=O)c2ccc(NC(=O)CN3CCCCC3)cc2)C1 (stereo unspecified)	-12%	6%	·	·	2%	·	·	-10%
CCOc1cc(C=C2C(=O)NC(=O)NC2=O)ccc1OCC(=O)N1CCOCC1	-2%	?	-1.4%	2%	22%	-6%	8%	-11%
CCOc1cc(N2CCOCC2)c(OCC)cc1NS(=O)(=O)c1ccc(Cl)s1	2%	-3%	-9.9%	?	1%	?	6%	14%
CC1CCCN(C(=O)CN2C(=O)NC3(CCCCC3C)C2=O)C1 (stereo unspecified)	1%	·	·	11%	-2%	9%[46.1 µM]	·	-10%
COc1ccc(CCNC(=O)c2nc(SCc3ccccc3F)ncc2Cl)cc1OC	·	·	0.9%	?	·	?	17%	?
c1c(CC2CCCC2)nnn1C[C@H]1CC[C@@H]([C@@H]2CC[C@H](Cn3cc(CC4CCCC4)nn3)O2)O1	-12%	8%	·	·	2%	·	·	-22%

Brought forward from above: 2 compounds, followed by the next part.
SMILES	RE007 growth inh	NS1 inh	Cruzain inh Det	Lassa entry inh	SARS PLP yeast	MARV entry inh	Cruzain inh noDet	StopGo reporter
COc1ccc(CCNC(=O)c2nc(SCc3ccccc3F)ncc2Cl)cc1OC	·	·	0.9%	?	·	?	17%	?
c1c(CC2CCCC2)nnn1C[C@H]1CC[C@@H]([C@@H]2CC[C@H](Cn3cc(CC4CCCC4)nn3)O2)O1	-12%	8%	·	·	2%	·	·	-22%
CCOC(=O)c1c(C)n(C)c2ccc(OCC(N)=O)cc12	-10%	6%	-1.9%	·	-1%	·	8%	-10%
CC(=O)Nc1ccc(/C=N/N2C(C)CCCC2C)cc1 (stereo unspecified)	-12%	·	·	-1%	0%	-2%[46.1 µM]	·	47%[activator]
CC(C)=CC(=O)Nc1ccccc1C(N)=O	8%	-4%	1.6%	16%	1%	6%	3%	13%
Cc1ccccc1NNC(N)=S	?	·	·	-19%	0%	2%[46.1 µM]	·	-6%
Cc1ccccc1-n1c(=S)[nH]c2nc3c(cc2c1=O)COC(C)(C)C3	18%	11%	·	·	-1%	·	·	-22%
COc1ccc(C(=O)N2CCCC(Nc3ccc(F)cc3)C2)c(OC)c1 (stereo unspecified)	-3%	2%	·	14%	-8%	?	·	0%
CN(c1ccc(OCC(=O)N2CCC(C(N)=O)CC2)cc1)S(=O)(=O)c1cccs1	-2%	1%	3.4%	0%	0%	-24%	6%	21%
Fc1ccc(-n2ncc3c(N4CCN(Cc5ccccc5)CC4)ncnc32)cc1	·	·	-0.6%	1%[46.1 µM]	·	·	9%	-5%
Cc1c(C(=O)NCCN2CCOCC2)oc2ccc(Br)cc12	4%	·	·	10%	-1%	13%	·	15%
N/C(COc1ccccc1)=N\NS(=O)(=O)c1ccccc1	8%	8%	3.5%	-4%	-1%	10%	-9%	26%
Cc1cc(C)cc(N(C(=O)CNC(=O)c2ccco2)C(C(=O)NC2CCCCC2)c2ccncc2)c1 (stereo unspecified)	-6%	-6%	·	10%[46.1 µM]	2%	-26%[46.1 µM]	·	0%
COc1ccccc1C(=O)NC(=S)Nc1ccc(Cc2ccncc2)cc1	-9%	11%	·	·	-3%	·	·	-16%
CN(C)S(=O)(=O)c1ccc(Cl)c(NC(=O)CN2CCNC(=O)C2)c1	-4%	·	·	0%	0%	-5%[46.1 µM]	·	-7%
O=C(CCC1CCCCC1)NCc1ccncc1	-2%	3%	-2.0%	8%	-6%	?	-1%	-3%
Fc1ccc(Cc2nnc(-c3cccs3)o2)cc1	7%	-38%	-3.0%	·	-33%	·	-5%	39%[activator]
CC(=O)Nc1cccc(OCc2ccc(S(=O)(=O)Cc3ccccc3)cc2)c1	1%	7%	4.0%	-1%	-4%	-25%	-2%	-14%
O=C(O)c1c(C(=O)O)c(-c2ccc(Cl)c(Cl)c2)n2c1CSC2	19%	11%	·	·	2%	·	·	-10%
O=C(Nc1ccccc1[N+](=O)[O-])c1cccc(N2C(=O)CCC2=O)c1	-6%	7%	·	25%	0%	12%	·	8%
C=CCn1cnnc1SCC(=O)N(C)CC1COc2ccccc2O1 (stereo unspecified)	-3%	·	·	6%	-4%	2%	·	0%
Nc1ccccc1C(=O)N=Nc1[nH]c(N)c2ccccc12	-18%	11%	-5.7%	?	10%	?	2%	-2%
O=C(COC(=O)Cc1cn2ccsc2n1)NC12CC3CC(CC(C3)C1)C2	3%	2%	2.0%	-10%	2%	3%	-10%	-17%
N#Cc1c(-c2ccc(Cl)cc2)c(C#N)c(=O)n(N)c1N	-5%	12%	0.5%	4%	8%	?	-6%	-15%
COc1ccc(-c2cn3c(C)c(C(=O)Nc4cc(C)cc(C)c4)sc3n2)cc1	·	·	-1.5%	-15%[46.1 µM]	·	·	-2%	-12%
COc1ccc(/C=N\Nc2ncc(F)c(N3CCOCC3)n2)cc1OC	-3%	-7%	·	-17%	1%	?	·	-10%
CCCn1c(=NC(=O)c2cc3ccccc3o2)c(C(=O)OCC)cc2c(=O)n3ccccc3nc21	·	·	2.3%	8%[46.1 µM]	·	-24%[46.1 µM]	-3%	-8%
Cc1ccc(S(=O)(=O)N2CCCCC2C(=O)O)cc1 (stereo unspecified)	-9%	3%	·	6%	1%	-6%[46.1 µM]	·	23%
Cc1ccccc1OCC(O)Cn1c(N2CCCCC2)nc2c1c(=O)[nH]c(=O)n2C (stereo unspecified)	0%	5%	·	·	3%	·	·	-2%
Cc1ccc(-c2nc3ccccc3s2)cc1NC(=O)COc1ccccc1	·	·	-1.0%	22%[46.1 µM]	·	·	1%	15%
CCn1nc(C)c(CCC(=O)O)c1C	-2%	3%	·	?	1%	0%[46.1 µM]	·	13%
CC(C)(C)c1ccc(C(=O)NCc2nnc(SCC(=O)NCc3ccco3)o2)cc1	-1%	7%	·	·	-3%	·	·	-9%
CC(=O)c1ccc(OCc2cc(C(=O)N3CC[C@@H]4CCCC[C@H]4C3)no2)cc1	-5%	-33%	·	?	-6%	?	·	-8%
CC(C)(C)c1cc(S(=O)(=O)CCc2ccccn2)cc(C(C)(C)C)c1F	-15%	3%	-12%	-6%	-12%	?	163%	·
COc1cnn(-c2ccccc2)c(=O)c1SCc1ccc(Cl)c(Cl)c1	10%	-6%	-6.4%	-5%	-2%	0%	-9%	?
Cc1nc(SCC(=O)Nc2c(C)n(C)n(-c3ccccc3)c2=O)[nH]c(=O)c1Cc1ccccc1	0%	-6%	5.1%	0%	3%	1%	3%	·
CC1CCN(Cc2ccc(-c3nnn(CC(=O)NC4CCCCC4)n3)cc2)CC1	-2%	4%	·	·	0%	·	·	-20%
CS(=O)(=O)N(CC(=O)NCc1ccco1)c1ccc(Cl)cc1Cl	1%	·	·	-7%[46.1 µM]	2%	-11%[46.1 µM]	·	4%
CO/N=C1\CCCc2c(C(=O)NN)sc(SC)c21	15%	11%	·	?	2%	?	·	-9%
Cc1ccc(-c2nc3sc4c(c3c(=O)n2N)CC(C)(C)OC4)cc1	30%	1%	12%	2%	7%	-2%	0%	?
O=Cc1ccc2ccc3cccnc3c2n1	25%	-58%	·	-2%[46.1 µM]	-4%	?	·	1%
COc1cc(-c2nc3cccc(C)n3c2NCC2CCCO2)ccc1O (stereo unspecified)	0%	-3%	·	?	-3%	-10%	·	-14%
